From PubChem
NPR1 antag: antagonists of human natriuretic peptide receptor Npr1; P16066; HEK293 hNpr1 GloSensor cGMP, ANP-stimulated luminescence; Potency, µM (doses to about 46.3 µM), without a hit: top-dose activity change, negative = inhibition, hits mostly inhibitors; actives 1.6% (n = 76,000); active = well fitted inhibition curve with a large enough effect; inconclusive = small, poorly fitted or top-dose-only effect; inactive = no such curve, though single readings can be large or run the other way;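 further: nearly all actives have a fitted effect of over 60% in size; nearly all hits also lower the signal before the agonist is added; a reference antagonist and vehicle were the controls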
Target sequence (P16066 whole entry, looked up): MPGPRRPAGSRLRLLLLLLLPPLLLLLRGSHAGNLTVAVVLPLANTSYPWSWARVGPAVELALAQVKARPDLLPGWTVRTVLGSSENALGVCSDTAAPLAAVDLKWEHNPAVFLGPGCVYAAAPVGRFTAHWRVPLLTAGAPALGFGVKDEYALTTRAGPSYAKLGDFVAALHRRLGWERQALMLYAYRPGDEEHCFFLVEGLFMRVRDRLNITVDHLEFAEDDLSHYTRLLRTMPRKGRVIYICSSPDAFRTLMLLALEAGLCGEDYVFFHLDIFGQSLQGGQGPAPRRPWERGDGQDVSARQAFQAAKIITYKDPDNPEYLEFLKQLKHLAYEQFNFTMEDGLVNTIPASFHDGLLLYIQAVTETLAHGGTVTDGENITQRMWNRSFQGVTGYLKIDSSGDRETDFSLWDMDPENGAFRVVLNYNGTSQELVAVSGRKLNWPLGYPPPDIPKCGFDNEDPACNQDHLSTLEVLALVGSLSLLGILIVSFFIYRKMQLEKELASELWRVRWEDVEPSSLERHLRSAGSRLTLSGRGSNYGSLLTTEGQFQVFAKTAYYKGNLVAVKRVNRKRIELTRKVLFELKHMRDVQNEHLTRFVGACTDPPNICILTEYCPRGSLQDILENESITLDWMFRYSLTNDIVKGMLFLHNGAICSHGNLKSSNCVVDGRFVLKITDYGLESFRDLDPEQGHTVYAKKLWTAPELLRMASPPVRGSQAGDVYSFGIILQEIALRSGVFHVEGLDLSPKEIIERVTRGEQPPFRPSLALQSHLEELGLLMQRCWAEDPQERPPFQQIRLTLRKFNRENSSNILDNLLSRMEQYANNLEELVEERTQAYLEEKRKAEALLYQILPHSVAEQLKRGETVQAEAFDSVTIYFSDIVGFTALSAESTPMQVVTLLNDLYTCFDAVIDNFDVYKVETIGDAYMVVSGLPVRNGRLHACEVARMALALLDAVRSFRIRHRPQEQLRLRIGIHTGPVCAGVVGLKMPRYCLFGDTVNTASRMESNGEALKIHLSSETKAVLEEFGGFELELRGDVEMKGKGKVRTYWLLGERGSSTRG
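Compound pre-incubated 30 min at room temperature on GloSensor-loaded HEK293 cells stably carrying hNpr1 and the pGS-40F cGMP biosensor. Stimulation uses hNppA at 0.1 nM final; luminescence is taken at baseline and 20 min post-agonist.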
* marks the source's active call; other numbers are inactive results; u = inconclusive; [ ] = remark or other dose. On the % scale 0 is the no-effect control and ±100 the full control effect; potency means the concentration at half of the fitted maximal effect.

canonical_smiles	NPR1 antag
CC(=O)c1c(C)nn(CCC(=O)N[C@@H]2CCNC[C@H]2O)c1C	-1%
CC(C)c1ccccc1NC(=O)CN1C(=O)NC2(CCOCC2)C1=O	15%
CC(C)N1CCN(C(=O)CCC[C@@H]2[C@H]3CCCN4CCC[C@@H](CN2C(=O)c2cccnc2)[C@@H]34)CC1	-9%
COC[C@@H]1CN(C(=O)c2ccc(OC)cc2OC)C[C@H]1c1ccncc1	-2%
OC1CN(Cc2ccccc2)CCN(Cc2ccc(OC(F)F)cc2)C1 (centres undefined)	-28%
CNC(=O)[C@@H]1CN(C(=O)c2cnc[nH]2)C[C@H]1COC	-2%
CCC(CC)C(=O)NC[C@@H]1C=C(C)[C@H](Cc2nc3ccc(OC)cc3[nH]2)C[C@H]1C(C)C	-22%[70.6 µM]
CN(Cc1ccccc1)C(=O)C[C@@H]1CCNC[C@@H]1Cc1cc(CN2CCCCC2)on1	-9%[70.6 µM]
Cc1nc2n(c1C(=O)N(C)c1ccccc1)CCC(Nc1ccc(F)cc1)C2 (centres undefined)	0%[70.6 µM]
COc1ccc(-c2nnc3n2CCN(C(C)=O)C3)cc1	3%[70.6 µM]
CCCCCC(=O)N1CC[C@@H](CC(=O)NCc2ccccc2)[C@@H](CC)C1	3%[70.6 µM]
COc1ccc(C(=O)NC2CCN(C(=O)N3CC4CC(C3)[C@H]3CCCC(=O)N3C4)CC2)cc1 (some centres undefined)	2%
O=C(Nc1ccc(N2CCOCC2)cc1)C1(CCO)CCN(c2ncccn2)C1 (centres undefined)	0%
O[C@H]1[C@H](NCC2CCCCC2)[C@H]2CO[C@H](O2)[C@@H]1Sc1ccccc1	4%[70.6 µM]
COC(=O)c1cn([C@H]2CO[C@H]3[C@@H]2OC[C@@H]3NCCCc2ccccc2)nn1	-6%[70.6 µM]
COc1ccc(Cn2c(C3CCN(C(=O)c4ccco4)CC3)n[nH]c2=O)cc1	0%
COc1ccc(NC(=O)C2(C)CCc3cnc(Nc4ccccc4)nc32)cn1 (centres undefined)	-19%[70.6 µM]
Cc1ccc(N2CCN(C(=O)c3noc(-c4ccc(F)cc4)n3)CC2)cc1	-21%
CCOc1ccc(-c2ccnc(-c3ncccn3)n2)cc1C(=O)O	5%
Cc1ccnc(CC(C)N(C)C(=O)c2cc(-c3cnn(C)c3)nc3ccccc23)c1 (centres undefined)	2%
Cn1c(CN2C[C@H](O)C[C@H]2c2nc(-c3ccc(OC(F)(F)F)cc3)no2)nc2ccccc21	-7%
CNC(=O)[C@H]1C[C@H](Oc2ccccc2)CN1Cc1sccc1C	2%
CC(=O)Nc1ccc(C2(C(=O)N3CCCCCC3)CCC2)cc1	7%
Cc1nn2c(c1-c1ccccc1[S+](C)(=O)[O-])N(C(=O)COc1ccccc1)CCC2	-1%[70.6 µM]
CCn1cnnc1CC1CCN(C(=O)c2[nH]nc3c2COc2ccccc2-3)CC1	4%
Cc1ccc(C(=O)NC2CCCN(c3cc(-c4ccc(F)cc4)[nH]n3)C2)cn1 (centres undefined)	-2%
COC(=O)[C@@H]1Cc2nc[nH]c2CN1C(=O)c1ccc(-c2ccccc2)cc1	5%[70.6 µM]
Cn1nc(C2CCCN(C(=O)Cc3cccc(F)c3)C2)n(-c2ccccc2)c1=O (centres undefined)	6%
Cc1nc(C2CC(O)C2)cc(N2CCN(c3ccc(F)c(Cl)c3)CC2)n1 (centres undefined)	u
Cc1ccc(OCC(=O)N2CCC3(CC2)N(CC2CC2)C(=O)CS3=O)cc1 (centres undefined)	7%

An excerpt from above in order of count of non-hydrogen atoms, smallest number first:
canonical_smiles	NPR1 antag
CNC(=O)[C@H]1C[C@H](Oc2ccccc2)CN1Cc1sccc1C	2%
O[C@H]1[C@H](NCC2CCCCC2)[C@H]2CO[C@H](O2)[C@@H]1Sc1ccccc1	4%[70.6 µM]
Cc1nc2n(c1C(=O)N(C)c1ccccc1)CCC(Nc1ccc(F)cc1)C2 (centres undefined)	0%[70.6 µM]

Other records:
canonical_smiles	NPR1 antag
COc1ccc(CCC(=O)N2CCC(c3nc(C4CCOCC4)no3)CC2)cc1	9%
Cc1cc(Cl)ccc1NC(=O)N1CCC(Oc2ncccc2C(=O)N2CCOCC2)C1 (centres undefined)	10%
Cc1c(CC(=O)N(C)C(C)C)c2c(n1Cc1ccccc1F)CCCC2=O	1%
O=C(O)C(c1cccc2c1OCC2)N1CCC(OCc2cccnc2)CC1 (centres undefined)	6%
CCNC(=O)N1CCC[C@@H](O)[C@H](NC(=O)c2ccc(OCCN3CCOCC3)cc2)C1	2%[70.6 µM]
COc1cccc(C(=O)N2C(C(=O)NC(C)C)COC23CCN(C(=O)c2ccc(F)cc2)CC3)c1 (centres undefined)	-4%
COC(=O)[C@@H]1Cc2c([nH]c3ccccc23)[C@H]2C[C@@H](NCc3cccnc3)C[C@@H](c3ccc(C(F)(F)F)cc3)N21	2%
O[C@@H]1C[C@@H](c2nc(-c3ccc4c(c3)OCO4)no2)N(CCCc2ccccc2)C1	-4%[70.6 µM]
O=C(Cn1cccc1-c1nc(-c2ccc(F)cc2)no1)NC1CCCCC1	5%
Cc1ccc(NC(=O)N2Cc3[nH]cnc3C[C@H]2c2nc(-c3cccc([N+](=O)[O-])c3)no2)cc1	-21%
CCCN1CC(Oc2ccc(-c3noc(-c4cccnc4)n3)cc2)C1	-25%
CC(C)CN1C(=O)c2cccn2CC1C(=O)N1CCN(c2ncccn2)CC1 (centres undefined)	5%
COc1ccc(CN2Cc3[nH]nc(-c4cccc(C(F)(F)F)c4)c3CC2=O)cc1	-12%[70.6 µM]
O=C(c1cnccn1)N1CCCC2(C1)Nc1cccnc1NC2=NCc1ccccc1 (centres undefined)	-5%
CC1=C[C@@H](CN2CCN(c3ccccn3)CC2)[C@H](C(C)C)C[C@H]1Cc1nnc(-c2cncn2C)o1	-2%
COc1ccc(NC(=O)NC[C@H]2COCc3nc4ccccc4n32)cc1	3%[70.6 µM]
CNC(=O)[C@@H]1CN(C(=O)c2cc(C)cc(C)c2)C[C@H]1CO	-8%
CN(C)C(=O)CN1C(=O)CO[C@H](c2ccc(NS(=O)(=O)c3cccc(F)c3)cc2)[C@H]1CO	-1%
CCCCCC(=O)Nc1ccc([C@H]2OCC(=O)N(Cc3nccn3C)[C@@H]2CO)cc1	10%[70.6 µM]
Cc1cc(N2CCN(Cc3nnc(C4CC(N)C4)n3C)CC2)cc(C)n1 (centres undefined)	-3%
CCS(=O)(=O)Nc1ccc(C2(C(=O)NCC3CCCO3)CCCCC2)cc1 (centres undefined)	0%
O=C1COC[C@H]([C@H](O)c2ccc(NC(=O)c3ccc(C(F)(F)F)cc3)cc2)N1	-2%[70.6 µM]
COCCCNC(=O)c1cnc2n[nH]c(-c3ccc(OC)cc3C)c2n1	5%[70.6 µM]
CC1(C(=O)NCCCn2ccnc2)CCCc2cnc(Nc3ccccc3)nc21 (centres undefined)	0%[70.6 µM]
O=C(NC1CCCC1)c1cn(C2CCN(C(=O)c3cccnc3)CC2)nn1	8%
CCN(CC)Cc1nc(C2(O)CCN(C3CCC(F)(F)CC3)CC2)cs1	9%[70.6 µM]
CC(=O)c1c(C)nn(CC(=O)NC(C)c2cnn(-c3ccccc3C)c2C)c1C (centres undefined)	-11%
CCOc1ccccc1C(=O)N1CCC2(CC1)CN(c1ccncn1)CC2CO (centres undefined)	7%
COc1ccc(C(=O)NC2CCN(c3cc(-c4ccc(Cl)cc4)[nH]n3)C2)cc1 (centres undefined)	1%
Cc1oc(-c2ccc3ccccc3c2)nc1CN1CCNC(=O)C1	1%
COCCn1c(C)cnc1CC1CCN(C(=O)c2ccc(OC)cc2OC)CC1	0%
CC(C)CCN1CCOCCNC(=O)CC1	0%
CCN1C(=O)CCC2(C(=O)NCCc3c[nH]c4ccccc34)CCCC=C12 (centres undefined)	-7%
CC(NC(=O)Cc1cccc(F)c1)C(=O)N1CCN(c2ccccn2)CC1 (centres undefined)	-4%
CN1C(=O)CS(=O)(=O)C12CCN(C(=O)c1ccoc1)CC2	1%
CCOc1cccc(CNC(=O)C2Cn3cccc3C(=O)N2)c1 (centres undefined)	3%
CC1=C[C@@H](CNC(=O)C2CC2)[C@H](C(C)C)C[C@H]1Cc1nc2ncccc2[nH]1	-5%[70.6 µM]
Cc1ccc(-c2noc([C@@H]3C[C@@H](O)CN3Cc3ccc(C(=O)O)cc3)n2)cc1F	-3%[70.6 µM]
CCOc1cc(=O)n2c(c1C(=O)NCCc1ccc(OC)c(OC)c1)CCCC2	5%
CC(=O)N1CCC(N[C@H]2CC(C)(C)[C@@H]3C[C@@](C)(O)CC[C@]23CCC(=O)NCCN2CCOCC2)CC1	-19%
COC(=O)c1c(NC(C)=O)c2cc(NC(C)CC(C)(C)O)cnc2n1CCC(C)C (centres undefined)	7%
COC[C@@H]1CN(Cc2c(F)cccc2F)C[C@H]1C(=O)NC1CC1	12%
O=C(NCCn1cc(-c2cncnc2)nn1)c1ccc(F)cc1	0%
COc1cccc(-n2cc(CN(C)Cc3cn(-c4ccccc4)nn3)cn2)c1	-1%
Cc1nc(-c2ccc(F)cc2)n(Cc2ccc(F)cc2F)c(=O)c1CCO	-1%
CSc1ccc(CNC(=O)C2CCN(c3cc(C(F)(F)F)ncn3)CC2)cc1	13µM*
COc1cccc([C@@H]2CN(C(=O)Cc3ccc(F)cc3)C[C@H]2C(=O)O)c1OC	1%
O=C(c1cccc(F)c1)N1CCC2(CC1)CC(N(Cc1ccc(F)cc1)C1CC1)CCO2 (centres undefined)	2%
CC(=O)Nc1cccc(-c2ccc3ncn(-c4cccnc4)c(=O)c3n2)c1	1%[70.6 µM]
O=C(Cn1c(=O)c2c(n1Cc1ccccc1)CN(Cc1ccccc1)CC2)Nc1cccc(F)c1	-13%
COCCN1Cc2nc(Nc3ccccc3F)ccc2OCC1=O	2%[70.6 µM]
O=C(O)COCC(=O)N[C@H]1CCN2C(=O)c3cc(/C=C/c4ccccc4)ccc3NC(=O)[C@H]12	2%
CC1Oc2ccc(NC(=O)c3ccc(F)cc3F)cc2CN(CCc2ccc(F)cc2)C1=O (centres undefined)	2%
Cc1cn2nc(C(=O)NCc3ccccc3C(F)(F)F)cc2c(N2CCSCC2)n1	-30%
CCCC(NC(C)=O)c1nc(CC(N)=O)nn1-c1ccc(F)cc1F (centres undefined)	-4%
CC(=O)Nc1ccc(C2(C(=O)NCCCN3CCOCC3)CCCCC2)cc1	0%
CCN1C(=O)Cc2cc(C(=O)NCC3CCCO3)ccc21 (centres undefined)	-3%
CCn1cc(CN(C)C(=O)CCc2ccc3c(c2)CN(C(C)=O)CCO3)c(C)n1	0%
COc1ccccc1CCC(=O)N1CCC2(CC1)NC(=O)N(c1ccccc1)N2	-8%
CC(=O)c1cccc(NC(=O)O[C@@H]2CO[C@H]3[C@@H]2OC[C@@H]3NC(=S)NC2CCCCC2)c1	18µM*

Grouped by structure, the compounds so far with an aryl thioether with sulfur outside any ring (two)
canonical_smiles	NPR1 antag
O[C@H]1[C@H](NCC2CCCCC2)[C@H]2CO[C@H](O2)[C@@H]1Sc1ccccc1	4%[70.6 µM]
CSc1ccc(CNC(=O)C2CCN(c3cc(C(F)(F)F)ncn3)CC2)cc1	13µM*

Next part:
canonical_smiles	NPR1 antag
Cc1cc(C)n(CCC(=O)N2CCC(Cc3nncn3-c3ccccc3)CC2)n1	6%
CCC(=O)N1CCN(c2nc3c(s2)CC(C(=O)Nc2ccc(F)cc2C)CC3)CC1 (centres undefined)	-16%
Cc1ccsc1CN1C[C@@H]2C(C(=O)Nc3ccccc3)=NO[C@@H]2C1	-18%[70.6 µM]
COC(=O)[C@@H]1C[C@H](NC(=O)c2cccc(-n3nnnc3C)c2)CN1C	3%
CN(C)C[C@@H]1CN(Cc2ccccc2)C[C@H]1NC(=O)c1ccco1	1%
c1ccc2[nH]c(N3CCN(Cc4cc5n(n4)CCCNC5)CC3)nc2c1	3%
c1ccc(C(CCNc2ncncn2)c2ccco2)cc1 (centres undefined)	3%
O=C1CC(c2ccccc2)N(C(=O)CNC(=O)c2ccc(Cn3ccnc3)o2)CCCCCN1 (centres undefined)	-8%
COc1ncccc1CN1CCC2(CC1)OC(=O)N(Cc1ccccc1C#N)C2(C)c1ccccc1 (centres undefined)	-30%
CCn1nc(CC(C)C)cc1C(=O)NCCS(=O)(=O)c1ccc(F)cc1	-1%
CCN1C(=O)CCN(S(=O)(=O)Cc2ccccc2F)CC12CCOCC2	4%
CC(C)c1ccc(C(=O)N2C[C@@H](CO)[C@H](c3ccncc3)C2)cc1	0%
CN1CC(=O)N(C2CCC2)Cc2c(NC3CCCCC3)ncnc21	-19%[70.6 µM]
COc1ccc2[nH]c(C(=O)N3C[C@@H](Oc4cccnc4)C[C@H]3C(=O)N3CCCC3)cc2c1	-6%
COc1ccccc1-c1cc2c(nc1-c1ccccc1)nc(C(=O)NC1CCN(C)CC1)n2C	-18%
N#Cc1ccc(CN2CCCOCCNC(=O)CC2)cc1	3%
CCCCc1cc(C[C@@H]2C[C@H](NC(=O)c3ccco3)C2(C)C)no1	1%[70.6 µM]
Cc1ccc(C)c(CN2CCc3nc(N4CCN(C)CC4)[nH]c(=O)c3CC2)c1	2%
O=C(CCC1CCCC1)N1CCC2(CC1)CC(N(Cc1ccc(F)cc1)C1CC1)CCO2 (centres undefined)	3%

Quoted from the listing.
NPR1 antag with `COc1ccccc1-c1cc2c(nc1-c1ccccc1)nc(C(=O)NC1CCN(C)CC1)n2C` stands at -18%
NPR1 antag with `CCC(=O)N1CCN(c2nc3c(s2)CC(C(=O)Nc2ccc(F)cc2C)CC3)CC1` (centres undefined) stands at -16%
NPR1 antag with `c1ccc2[nH]c(N3CCN(Cc4cc5n(n4)CCCNC5)CC3)nc2c1` stands at 3%

Some of the compounds tested; rates above refer to the full screens.
